NPYLR7 ag – mosquito NPYLR7 agonism | HEK293T NPYLR7/Galpha15, GCaMP6s calcium fluorescence | activation, % at 10 µM | 0.15% of 270,000 active | AID 1259423; in the data active = activation above about 40%;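 note: 0% = vehicle and 100% = reference agonist at the receptor; some compounds past the cut are filed as inactive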
NPYLR7 ag max-min – second read-out of NPYLR7 ag, no call of its own (marks repeat the call); activation, %; measured here: Max-Min RFU normalised activation; some inactives read as strong as hits;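 span of the calcium signal over five minutes; 0% = vehicle and 100% = native peptide agonist; compound fluorescence can raise it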
Starred values were filed as active, the others as inactive; & = joins results of further samples. This is a subset. The share of hits here may be higher or lower than overall.

SMILES | NPYLR7 ag | NPYLR7 ag max-min
Cc1ccc(N2C[C@H](c3cc(F)cc(F)c3)[C@@H]3[C@H]2C2CCN3CC2)nn1 | -1 | -6
CC(C)=CCN1CCCC(C(=O)c2ccc(Cl)cc2)C1 (configuration not stated) | 25 | 10
CNC(C)c1nc2ccccc2c(=O)n1-c1ccccc1OC (configuration not stated) | 7 | 10
Cc1nn(Cc2ccccc2)c(C)c1C(=O)NC(C)c1ccc2c(c1)OCCO2 (configuration not stated) | 9 | 5
CC(C(=O)NCc1cnn2ccccc12)N1CCCC1=O (configuration not stated) | -4 | -6
O=P(Oc1ccccc1)(Oc1ccccc1)N1CCN(c2ccc(F)cc2)CC1 | -11 | -15
CC12CCC(CNC1)C2(C)C (configuration not stated) | 2 | 7
O=C(COc1ccc(Cl)cc1)N1CCN(CC(OCc2c(F)cccc2F)c2ccc(Cl)cc2)CC1 (configuration not stated) | 5 | 0
CCCN1CCC[C@H](c2cccc(O)c2)C1 | 2 | -13
CCN(CC)S(=O)(=O)c1ccc(Cn2nc(C(=O)Nc3nc4ccccc4s3)c3ccccc32)cc1 | 20 | 23
NCCc1cccc(CN2C[C@@H]3[C@H](C2)[C@H]2CC[C@@H]3O2)c1 | 8 | 6
N#Cc1c(NC2=CC(=O)CCC2)sc2c1CCCCCC2 | -2 | -4
CC(=NNP(=S)(c1ccccc1)c1ccccc1)c1ccc(O)cc1O | -3 | -7
O=C(Nc1ccc(F)c(F)c1)N1CCN(CCOC(c2ccccc2)c2ccc(F)c(F)c2)CC1 (configuration not stated) | -2 | 5
CN(C)P(=O)(OCC(F)(F)F)N(C)C | -9 | -20
O=C(NCC1CCCO1)C(C1CCCC1)N1CCN(C(=O)COc2ccc(Cl)cc2)CC1 (configuration not stated) | -10 | -6
CN1[C@H]2CC[C@@H]1CN(c1ccnc(N)n1)CC2 | -2&13 | -4&10
CCN1C(=O)C2(c3ccccc31)c1c(cc(C)n(CC3CCCO3)c1=O)OC(=N)C2C(=O)OC (configuration not stated) | -2 | -4
COc1ccc(C(=O)N(Cc2cc(NC(=O)c3cccs3)ccc2N(C)C2CCN(C)CC2)CC(C)C)cc1 | 27 | 27
C#C[C@H]1CN2CC[C@H]1C[C@@H]2CNC(=S)Nc1cccc(SC)c1 | -14 | -20
CCOc1ccc2[nH]c(=O)c(CN3[C@@H]4CC[C@H]3CC(O)C4)cc2c1 (some centres not stated) | 29 | 22
CCOC(=O)P(=O)(O)O | 6 | 4
Cc1c(C(=O)N[C@@H]2C[C@H]3CC[C@@H]2C3)ncn1Cc1ccc(Cl)cc1 | 13 | 5
COC(=O)c1ccccc1NC(=O)N1CCN(CCOC(c2ccccc2)c2ccc(F)c(F)c2)CC1 (configuration not stated) | 24 | 27
COc1cccc([C@@H]2CCN(Cc3ccc4ccccc4n3)C[C@H]2O)c1 | 5 | 1
Cc1cc(CN2CCc3ccccc3C3(CCC(=O)CC3)C2)no1 | 18 | 15
COC1CCCCC1NC1CCCC1 (configuration not stated) | 1 | -1
CCCCC1(C)N2CC3(C)CN1CC(C)(C2)C3=O (configuration not stated) | 5 | 5
CC12CCC(O)CC1=CCC1C2CCC2(C)C(O)C(=Cc3ccc([N+](=O)[O-])cc3)CC12 (configuration not stated) | 2 | -2
Cc1ccc(C)n1C1CC(C)(C)NC(C)(C)C1 | 3&1 | 4&0
O=S(=O)(c1cc(F)ccc1F)N1CCN(CCOC(c2ccccc2)c2ccccc2)CC1 | -2 | 9
COc1ccc(NP(=O)(Oc2ccccc2F)Oc2ccccc2F)cc1 | 2 | 1
Cc1n[nH]c(C)c1CN1CCC2(CCNCC2)C1 | 12 | 7
N#Cc1ccc(NC(=O)c2ccc(Br)o2)cc1Cl | 7 | 5
Clc1cccc(CN2CCNCC2)c1Cl | -2 | -6
O=C(O)Cc1cccnc1C(=O)O | -12 | -17
O=C1OC2(CCN(Cc3ccccc3)CC2)c2ccccc21 | 5 | 6
COc1ccccc1[C@@H]1CN(S(=O)(=O)N(C)C)[C@@H]2C3CCN(CC3)[C@@H]21 | 23 | 11
Cc1cccc(-n2nc(-c3ccccc3)c3c2N(CC(=O)NCc2ccco2)C(=O)CSC3c2ccsc2)c1C (configuration not stated) | 16 | 5
COc1ccc(Br)cc1C=C(C#N)C#N | 9 | 13
O=C(NCCCN1CCCC1=O)c1nn(Cc2ccc(OCc3ccccc3)cc2)c2ccccc12 | 15 | 17
CN1C(=O)C(=Cc2cccc(OCc3ccccc3Cl)c2)C(=O)N(C)C1=O | 3 | 5
O=C(O)c1cn(Cc2ccc(Cl)cc2)nn1 | 8 | 6
Oc1ccccc1C=NNP(=S)(c1ccccc1)c1ccccc1 | 4 | 3
COC(=O)C1C(=N)Oc2cc(C)n(C)c(=O)c2C12C(=O)N(Cc1ccc(Cl)cc1)c1ccccc12 (configuration not stated) | 3 | 1
FC(F)n1ccnc1CN1CCNCC1 | 6 | 6
Cc1cc(/C=C2\C(=O)NC(=O)N(C)C2=O)c(C)n1-c1ccc2c(c1)OCO2 | -2 | -6
C[C@@H]1O[C@@H](O[C@H]2C[C@@H](O)[C@]3(CO)[C@@H]4C(CC[C@]3(O)C2)[C@@]2(O)CC[C@H](C3COC(=O)C3)[C@@]2(C)C[C@H]4O)[C@H](O)[C@H](O)[C@H]1O (some centres not stated) | -1 | -25
Cc1nc(CC(=O)N2CCN(Cc3ccco3)C(CCO)C2)cs1 (configuration not stated) | -5 | -9
CC1=C(C(=O)OC(C)C)C2(C(=O)Nc3ccccc32)C(C(=O)OC(C)(C)C)C(=N)O1 (configuration not stated) | -2 | -2
COc1ccc2n[nH]c(CN3C[C@@H]4[C@H](C3)[C@H]3CC[C@@H]4O3)c2c1 | 2 | 1
CCCCCCOC(=O)C1CN1C(CC)C(=O)OC (configuration not stated) | -5 | -11
Oc1ccc2c3c1O[C@H]1c4[nH]c5ccccc5c4C[C@@]4(O)C(C2)N(CC2CC2)CC[C@]314 | -9 | -16
CC(C)c1ccc(NC(=O)C(C2CCCC2)N2CCN(C(=O)COc3ccc(Cl)cc3)CC2)cc1 (configuration not stated) | -1 | 5
CC(=O)[C@H]1CC[C@H]2[C@@H]3CC[C@H]4C[C@H](O)CC[C@]4(C)[C@H]3C(=O)C[C@]12C | 6&2 | -7&-39
C=CCNC(=O)c1cn(Cc2ccc(C)o2)cc(C(=O)NCC2OCCc3ccccc32)c1=O (configuration not stated) | 3 | 2
CC(Cn1cncn1)NCCN1CCc2ccccc21 (configuration not stated) | 6 | 3
Cc1cc(C(F)F)n2nc(C(=O)Nc3ccc4c(C(F)(F)F)cc(=O)oc4c3)nc2n1 | -10 | -13
O=c1c2cnc3ncnn3c2ccn1CCc1cnc[nH]1 | 5 | 10
CCCCOC(=O)c1ccccc1C(=O)OCCCC | -4 | -10

Next section:
SMILES | NPYLR7 ag | NPYLR7 ag max-min
Cc1sc2ccccc2c1CC1=NCCN1 | 9 | -8
CCCCc1ccc(C(=O)O)nc1 | -7&-1 | -10&-33
O=S(=O)(CC(F)(F)F)N1CCC2(CCNCC2)C1 | 13 | 8
Cc1cc(C)c2nc(N3CCNCC3)sc2c1 | -4 | -7
Clc1cnc(Oc2ccc(Oc3ncc(Cl)cc3Cl)cc2)c(Cl)c1 | 3 | -24
CN1CCN(c2c([N+](=O)[O-])cc(C(F)(F)F)cc2[N+](=O)[O-])CC1 | 4 | 1
CCOC(=O)c1c(CN2CCN(C)CC2)n(Cc2ccccc2)c2cc(Br)c(O)cc12 | -6 | -4
CCCC[N+]1(C)C2CC(OC(=O)[C@H](CO)c3ccccc3)CC1C1OC12 (some centres not stated) | 1 | -16
COc1ccc(-n2nc(-c3ccccc3)c3c2N(CC(=O)NC2CC2)C(=O)CSC3c2cccc(C)c2)cc1 (configuration not stated) | 25 | 34
CC(Cc1ccccc1)N(C)CN1C(=O)c2ccccc2C1=O (configuration not stated) | 8 | 2
C#C[C@H]1CN2CC[C@H]1C[C@@H]2CNC(=S)Nc1ccc(C)cc1Br | -5 | -7
C[C@]1(O)CCC2C3CC[C@H]4CC(=O)C(=CO)C[C@]4(C)C3CC[C@@]21C (some centres not stated) | -24 | -34
O=C(c1ccc2n[nH]nc2c1)N1C[C@@H](c2ccccc2)[C@@H]2[C@H]1C1CCN2CC1 | 5 | 1
CCN1C(=O)C2(c3ccccc31)c1c(cc(C)n(CC)c1=O)OC(=N)C2C(=O)OC (configuration not stated) | 1 | 4
O=S1(=O)C=CC(NC2CCC3(CCNCC3)CC2)C1 (configuration not stated) | 9 | 3
Cc1ccc(N=C(N(C)C)P(=O)(N(C)C)N(C)C)cc1 | 6 | -4
C[C@]12CCC3C(CC[C@H]4C[C@H](OS(=O)(=O)O)CC[C@]34C)C1CCC2=O (some centres not stated) | -8 | -13
CC1C[C@H]2CC(=O)[C@H]3CCCN4CCC[C@H]2[C@]34C1 (some centres not stated) | -5 | -7
CN1CCc2c(C#N)c(N)n(C)c(=S)c2C1 | 3 | 12
COc1ccc(-n2nc(C(C)(C)C)c3c2N(CC(=O)O)C(=O)CSC3c2ccsc2)cc1 (configuration not stated) | -7 | -13
CC(C)(C)c1ccc(Cn2nc(C(=O)NCC3CCCO3)c3ccccc32)cc1 (configuration not stated) | 17 | 18
CC(C)(c1ccccc1)C1CCCN1 (configuration not stated) | 17 | 6
O=C1NCCN2CCN(C(=O)c3cnn4ccccc34)CC12 (configuration not stated) | 10 | -3
COc1cc(N)c(Cl)cc1C(=O)NC1CN2CCC1CC2 (configuration not stated) | -12 | -20
C#CCCN1CCN(C(=O)Cc2cc(C)[nH]n2)CC1 | -3 | -8
Cc1[nH]c2ccccc2c1C1=CCN(CCS(C)(=O)=O)CC1 | 7&2 | 6&0
S=P(Oc1ccccc1)(c1ccccc1)N1CCOCC1 (configuration not stated) | 8 | 11
Cc1ccc(Cn2cccc(C(=O)Nc3nc(C)cs3)c2=O)cc1 | 17 | 10
O=C(O)[C@@H]1CSC(c2cccnc2)N1 (some centres not stated) | 3 | 2
COc1ncccc1-c1ccc2c(c1)CNCC2 | 10 | 6
CCCCOc1ccc(S(=O)(=O)N2CCN(CCOC(c3ccc(Cl)cc3)c3ccc(Cl)cc3)CC2)cc1 | 6 | 5
N[C@H]1[C@H](O)[C@@H](N2CCCCC2)[C@@H]2OC[C@H]1O2 | -12 | -18
CCC(=O)Nc1ccc(OCC(=O)N2CCCN(C)CC2)cc1 | -4 | -7
CCOC(=O)[C@]12C[C@@H](Oc3ccccc3)[C@@]1(c1ccccc1)NC(=O)C2=O | -5 | -9
O=C1c2ccccc2C2(c3ccc(Cl)cc3)NCCN12 (configuration not stated) | 16 | 7
CCCCN1C(C)CCOP1(=O)Sc1ccccc1 (configuration not stated) | 6 | 3
CCn1ccc(C(=O)N2CCN(C)C3(CCN(C)CC3)C2)cc1=O | 2 | 0
CCS(=O)(=O)Nc1cccc(C(=C2CCCCC2)c2cnc[nH]2)c1 | 6 | -7
S=P(Cc1ccccc1)(Cc1ccccc1)N1CCCCC1 | -4 | -5
O=S(=O)(c1cccc(Cl)c1Cl)N1CCN(CCOC(c2ccc(F)cc2)c2ccc(F)cc2)CC1 | 3 | 0
Cc1ccc(-n2c(C(C)NCc3ccco3)nc3ccccc3c2=O)c(C)c1 (configuration not stated) | -6 | 4
N#Cc1ccccc1-c1ccc(COc2coc(CN3CCN(C(=O)Cc4cccs4)CC3)cc2=O)cc1 | 4 | 2
CC(C)C/C(=N/O)c1cn(C)c2ccccc12 | 1 | -2
CN1CCN(C(=O)Cc2c[nH]c3ccccc23)CC1C(=O)O (configuration not stated) | 9 | 7
COP(=O)(CCl)Oc1ccccc1 (configuration not stated) | 5 | 2
CCOC(=O)[C@H]1CN(C(=O)C(CC)CC)[C@]2(C)C(=O)N(CCOC)c3ccccc3[C@H]12 | -1 | 11
Fc1ccc(CN2CCOC3CCCCC32)c2ncccc12 (configuration not stated) | 3 | 0
CC(C)Cn1cc(C(=O)O)c2ccccc21 | -2 | -2

Screening data as filed in PubChem BioAssay.
